Mtb hypoxia rep: PubChem AID 1159583; M. tuberculosis hypoxia-regulated fluorescent reporter, fluorescence; fluorescence inhibition, % (test concentration not listed); 0.1% of 300,000 active;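 active = 35 to 45% if threefold the growth effect, above 45% if 1.5-fold the growth effect; inactive = the rest, general growth blockers included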;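 note: wells of about 50 µL received 100 nL stock; 0% = vehicle wells and 100% = reference inhibitor wells; whole bacteria with a GFP reporter of the hypoxia response; strong numbers were not always called active; many hits fall short of the cut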
Autofluor counter: flagged as autofluorescent in microsphere protease counterscreen | compound autofluorescence counterscreen, microsphere flow cytometry; hits give high values | fluorescence intensity (no concentration beside the values) | 3.1% of 360,000 active | AID 624483;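 active = at least 3 SD above the mean of all compounds, about 16000 in these data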;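 note: 100 nL of 1 mM stock went into each well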
ugtP null kill: growth inhibition of ugtP-null S. aureus, primary screen, RN4220 ugtP deletion, OD600; 0.54% of 330,000 active; growth inhibition, % (no concentration beside the values); 16 h; some inactives read as strong as hits;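 active = z-score under -3 and OD600 up to 0.15 on both plates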;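 note: plate controls were untreated wells for no effect and antibiotic for full effect; wells of about 80 µL received 100 nL stock; the first replicate is given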
BJeLR lethal: MLPCN primary cell-based screen for lethality selective to Ras in HRASV12 cells; BJeLR (HRASV12) viability, CellTiter-Glo ATP luminescence, 48 h; reference of the scale not given here; inhibition, % (concentration not given with the values); 0.17% of 300,000 active;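 active = replicate mean above 50%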;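 note: 50 nL library stock added to about 25 µL; numbers are from one replicate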
RN4220 kill: growth inhibition of S. aureus RN4220, primary screen, OD600; 16 h; inhibition, % (concentration not given with the values); 0.33% of 330,000 active;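 active = z-score of -3 or lower and OD600 up to 0.18 on both plates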;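 note: plate controls were untreated cells for no effect and reference antibiotic for full effect; stock transfer was 100 nL into about 80 µL; one replicate is shown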
PrP UTR inh: inhibition of PrP 5' UTR reporter expression; cell-based PrP 5' UTR mRNA reporter, plate reader; inhibition, % (no concentration beside the values); 0.35% of 340,000 active; AID 488862, 2010;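 active = every replicate at 50% or more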;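 note: 0 = median of the neutral control wells; tested in H4 reporter cells; numbers are from one replicate; inactives centre near -14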
Mtb hypoxia rep growth: further read-out of Mtb hypoxia rep, marked with its call; growth inhibition, %; measured here: M. tuberculosis growth (absorbance);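 0% = vehicle and 100% = reference antibiotic; read after six days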
* marks the source's active call; other numbers are inactive results; . = no result given; & = joins results of further samples; ! = not confirmed by another sample.

SMILES	Mtb hypoxia rep	Mtb hypoxia rep growth	Autofluor counter	ugtP null kill	BJeLR lethal	RN4220 kill	PrP UTR inh
CCC[C@@H]1CCCO[C@@](C(=O)NCCN2CCOCC2)(C(F)(F)F)C1	.	.	3952	.	9	.	-27
Cc1sc(NC(=O)c2ccc(Cl)s2)c(C(N)=O)c1C	-1	14	16138*	-20	2	2.2	-166
O=C(Nc1nccs1)c1cccc(S(=O)(=O)N2CCOCC2)c1	.	.	4187	6	0	1.8	-9
COc1cc(OC)c(C=O)c(OC(=O)N2CCOCC2)c1	15	-2	3302	-4	-2	5.8	-12
CCc1sc(N)nc1-c1ccccc1	8	1	7503	10	1	8.3	-9
Cc1ccc2oc(=O)c3cc(C(=O)NCCN4CCc5ccccc5C4)sc3c2c1	.	.	4746	-12	-6	-0.2	-3
C[C@H](CO)N1C[C@H](C)[C@@H](CN(C)C(=O)Nc2ccccc2)Oc2c(NC(=O)Nc3ccccc3)cccc2C1=O	6	12	3729	-4	.	-17	-26
COc1ccc2nc(CCN(C)C(=O)C3CCC(=O)N(Cc4cccc(F)c4)C3)[nH]c2c1 (stereo unspecified)	-1	-6	5703	3	2	3.7	-21
Cc1ccc(SCC(=O)OCC(=O)NC(C)c2ccc(Br)cc2)cc1 (stereo unspecified)	3	12	5188	1	2	1.3	-7
COC(C(=O)NNC(=O)CCc1ccccc1)c1ccccc1 (stereo unspecified)	7	13	4449	11	-5	-1.6	-52
Cc1nc(SCC(=O)NC2CCCC2)c2c(C)c(C)sc2n1	15	13	5254	10	-2	4.0	-14
O=[N+]([O-])c1ccc2nc(N3CCNCC3)ccc2c1	-4	4	.	1	6	1.0	.
Cc1ccc(N(C)C(=O)c2cc(S(=O)(=O)N3CCc4ccccc43)cn2C)cc1	5	4	4265	13	-6	29	-38
O=c1[nH]c(=O)n(C2CCCCCC2)c(O)c1C=NCC1CCCO1 (stereo unspecified)	.	.	4914	14	10	1.8	-8
COc1ccc(C)cc1NC(=O)Nc1ccccc1SC	15	5	4730	-2	9	8.4	-18
N#Cc1ccc(OCC(=O)NN=C(CCC(=O)O)c2cccs2)cc1	4	5	.	6	.	10	.
COc1ccc(CCNC(=O)C2CC=CCC2C(=O)O)cc1 (stereo unspecified)	2	3	5581	3	-4	4.1	-12
CCN(CC)S(=O)(=O)c1ccc(NC(=O)c2c(-c3ccccc3)noc2C)cc1	.	.	3913	7	-5	10.0	-9
CCCOc1ccc(Cn2c(C)nc([N+](=O)[O-])c2SCC(O)COC)cc1[N+](=O)[O-] (stereo unspecified)	5	10	4019	17	-2	5.2	3
COc1ccc(N2CCN(S(=O)(=O)c3c[nH]c(=O)[nH]c3=O)CC2)cc1	6	-1	6072	18	8	1.4	-24
O=C(COC(=O)c1ccc(F)cc1)Nc1ccc(Cl)cn1	16	-2	4317	3	2	3.7	-6
CCOc1ccc(-c2c(C(=O)N/N=C/c3sccc3C)nnn2-c2nonc2N)cc1	.	.	5780	.	4	.	-18
CCC(C)c1ccc(O)c(C=NO)c1 (stereo unspecified)	9	3	.	0	.	2.7	.
O=C1NC(=O)C(=Cc2cc([N+](=O)[O-])ccc2N2CCCCC2)C(=O)N1	10	2	2684	-9	-5	2.5	-22
Nc1cc2c(cc1Br)-c1ccc(F)cc1C2O (stereo unspecified)	6	10	3754	0	.	1.4	-14

Further results follow:
SMILES	Mtb hypoxia rep	Mtb hypoxia rep growth	Autofluor counter	ugtP null kill	BJeLR lethal	RN4220 kill	PrP UTR inh
O=C(NCCCN1CCN(CCCNC(=O)c2ccccc2F)CC1)c1ccccc1F	-4	2	10006	1	-1	4.1	5
O=C(COc1ccccc1C(=O)NCC1CCCO1)Nc1ccc(Br)cc1 (stereo unspecified)	7	0	4309	3	-6	-17	-6
COc1ccc(NC2CCCN(C(=O)CCN3CCCC3=O)C2)cc1OC (stereo unspecified)	-7	0	5971	-2	2	-3.4	-7
COc1ccc(-c2nnn(CC(=O)N(CC(=O)NC3CCCC3)c3cccc(C)c3)n2)cc1OC	3	7	10482	1	-3	-1.2	-18
Nc1c(C(=O)NCCc2ccccc2)nnn1Cc1ccc(Cl)cc1	8	4	9837	-3	-6	3.6	-9
Cc1ccccc1NC(=O)/C(C#N)=C/c1ccsc1	.	.	8005	.	8	.	-30
CN(C(=O)c1cccc(NC(=O)Cc2ccc(NC(=O)C3CCCN(C(=O)C4CCCC4)C3)cc2)c1)C1CCCCC1 (stereo unspecified)	-5	1	4123	-1	.	2.5	1
O=C(O)[C@H]1CCCC[C@H]1C(=O)Nc1ccc(S(=O)(=O)N2CCCCC2)cc1	16	8	3420	10	4	0.3	-19
Cc1ccccc1S(=O)(=O)Cc1ccc(C(=O)NCCCN(C)Cc2ccccc2)o1	2	6	5852	2	2	1.8	-12
CCCCn1c(N)c(N(CCC(C)C)C(=O)COC(=O)c2cccnc2Cl)c(=O)[nH]c1=O	-9	-5	6665	0	.	2.3	-8
CCOC1OC(C(N)=O)=CC(c2coc3ccccc3c2=O)C1CCCO (stereo unspecified)	10&14	10&8	.	1&5	.	9.1&3.4	.
O=S(=O)(Cc1ccc(Cl)cc1)NCc1ccc2c(c1)OCO2	-1	14	5340	1	6	1.3	-14
COC(=O)c1sc(N2C(=O)C(O)=C(C(=O)c3ccc(C)o3)C2c2ccc(OC)c(OC)c2)nc1C (stereo unspecified)	4	-7	6485	5	-8	9.1	-11
CCOc1ccc(-c2[nH]ncc2-c2ccccc2)c(O)c1	4	-12	6120	3	-4	-7.3	-30
COc1ccc(N2CC(C(=O)NC3CCCCC3)CC2=O)cc1 (stereo unspecified)	-6	-9	3646	9	-3	5.5	-10
Cc1noc(C)c1NC(=O)Nc1ccc2c(c1)CC(=O)N(C(C)CO)CC(C)C(CN(C)CC1CCCCC1)O2 (stereo unspecified)	6	-3	.	0	.	-1.3	.
CCNC(=S)NN=Cc1cccc(C)c1	0	7	.	-7	.	2.9	.
CC(C)c1ccc(NC(=S)NNC(=O)c2cccnc2)cc1	-5	1	4418	11	-2	8.3	-18
Cc1ccc2[nH]c3c(=S)nc[nH]c3c2c1	12	6	2521	-4	2	5.3	-46
CNc1cc([N+](=O)[O-])ccc1N/C=C/C(=O)c1cccs1	.	.	2104	1	6	-5.6	-1
CCOC(=O)C(C)Sc1cnccn1 (stereo unspecified)	16	11	2086	11	-10	0.9	-20
CCOC(=S)SCc1cn2ccccc2n1	6	16	3675	2	12	2.8	-6
CCOc1ccc(-n2c(N)c(C(=O)NCc3ccco3)sc2=S)cc1	8	8	3693	6	1	4.3	-8
CCOC(=O)C1CCCN(S(=O)(=O)Cc2ccccc2)C1 (stereo unspecified)	4	-5	11599	1	5	-0.3	-12
O=C(O)c1cc(Cl)nc2ccccc12	3	2	4376	3	0	13	-6

Retrieved by structure from the list above, three records:
SMILES	Mtb hypoxia rep	Mtb hypoxia rep growth	Autofluor counter	ugtP null kill	BJeLR lethal	RN4220 kill	PrP UTR inh
CC(C)c1ccc(NC(=S)NNC(=O)c2cccnc2)cc1	-5	1	4418	11	-2	8.3	-18
COc1ccc(NC2CCCN(C(=O)CCN3CCCC3=O)C2)cc1OC (stereo unspecified)	-7	0	5971	-2	2	-3.4	-7
Cc1ccc2[nH]c3c(=S)nc[nH]c3c2c1	12	6	2521	-4	2	5.3	-46

Next entries follow:
SMILES	Mtb hypoxia rep	Mtb hypoxia rep growth	Autofluor counter	ugtP null kill	BJeLR lethal	RN4220 kill	PrP UTR inh
CCCCCC(=O)N1CCN(CCN=CC2=C(O)CC(c3cccs3)CC2=O)CC1 (stereo unspecified)	5	2	19021*!	4	-15	-0.4	-6&-7
Cc1ccc(N2CCN(c3ccc([N+](=O)[O-])cn3)CC2)c(C)c1	19	-7	3073	8	2	0.5	4
CCC(=O)Nc1ccc(C(=O)Nc2c[nH]c(=O)[nH]c2=O)cc1	1	3	4341	8	5	3.3	-12
CCOC1OC(C(=O)NCc2ccccc2)=CC(c2csc3ccccc23)C1CCCO (stereo unspecified)	3	7	.	-8	.	6.1	.
CNCc1cc(Br)c(OCC(=O)Nc2ccccc2OC)c(OC)c1	12	14	4303	0	1	-4.1	-2
O=C(CCNC(=O)c1ccco1)Nc1ccccc1N1CCOCC1	-7	6	4207	0	8	0.1	-14
Cc1ccc(C2CC(=O)NC(SCc3ccccc3)=C2C#N)o1 (stereo unspecified)	-8	-6	5662	6	0	5.4	-1
COc1ccc(S(=O)(=O)N2CCC(C(=O)N3CCC(C(N)=O)CC3)CC2)cc1Cl	10	1	3360	2	3	4.3	0
CN1CCN(c2nc3c(c(=O)[nH]c(=O)n3C)n2Cc2cccc3ccccc23)CC1	-3	16	4179	-2	7	3.2	-18
CC(=O)Nc1ccc(N2Cc3ccccc3C2)cc1	-6	0	3002	-7	2	-1.5	-6
COc1ccc(CC(=O)OCC(=O)Nc2cccc(C(C)=O)c2)cc1OC	0	1	7437	3	.	0.3	-7
CCCCCCC=Cc1ccc(OC)c(C2C3C=CCC(C)C3C(=O)N2Cc2ccccc2)c1 (stereo unspecified)	18	18	.	4	.	5.5	.
COc1ccc(C(c2c(C)n(C)n(-c3ccccc3)c2=O)c2c(C)n(C)n(-c3ccccc3)c2=O)c(OC)c1OC	-11	1	4250	3	7	2.8	-21
O=C(CCn1c(=S)[nH]c2ccccc2c1=O)NCCCN1CCCC1=O	4	11	22673*	-3	-2	0.5	-10
CCC1(CC)NC(=O)N(CC(=O)Nc2ccc(-n3cnnn3)cc2)C1=O	5	2	2868	5	.	5.8	-6
CC(=O)c1ccc(NC2OC(CO)C(O)C(O)C2O)cc1 (stereo unspecified)	4	3	3979	-3	-6	4.2	-12
COc1cccc(CNc2nn[nH]n2)c1OC	.	.	4508	6	2	0.2	-46
COc1ccc(Cl)cc1C1=CC(=O)CC(c2ccc(F)cc2)C1 (stereo unspecified)	6	8	.	1	.	-1.0	.
CCCCNC(=O)CCCCCNS(=O)(=O)c1ccc(OC)cc1	12	7	7763	11	.	4.6	-31
O=C(c1ccccc1O)N1N=C(C(F)(F)F)CC1(O)c1ccc([N+](=O)[O-])cc1 (stereo unspecified)	1	2	9421	-7	-4	6.2	-28
CCCc1nnc(NC(=O)CCC(=O)NCc2ccc(Cl)cc2Cl)s1	7	-8	4068	5	-3	6.2	-52
Cc1cc(C)c(OCCOCCN(C)C)c(Br)c1	-1	-3	2482	1	-3	-1.0	-16
COc1cc(NC(=O)CCc2ccccc2)nc(OC)n1	4	10	10563	4	2	1.8	-29
C/C(=C\c1ccc2c(c1)OCO2)C(=O)c1c(C)cc(C)[nH]c1=O	7	5	4208	14	3	4.2	-18
CC(=O)OCC1OC(OC(C)=O)C(NC(=O)c2cccnc2)C(OC(C)=O)C1OC(C)=O (stereo unspecified)	4	2	9606	-2	9	1.0	-23

Additional results
SMILES	Mtb hypoxia rep	Mtb hypoxia rep growth	Autofluor counter	ugtP null kill	BJeLR lethal	RN4220 kill	PrP UTR inh
O=C1OC(c2ccc(Br)cc2)=N/C1=C\N1CCCCC1	8	6	6782	0	0	2.4	-20
COC(=O)C1=C(CSc2nc3ccccc3o2)NC(=O)NC1c1cc(C)ccc1C (stereo unspecified)	.	.	2151	-7	-2	16	3
O=C(N[C@@H](CCC/[N+]([O-])=C/c1ccccc1)C(=O)O)OCc1ccccc1	3	4	3870	-1	.	4.2	-27
COc1cc(C(O)c2nc3ccccc3n2C(C)C)cc(OC)c1OC (stereo unspecified)	11	-1	3348	3	-1	1.3	-9
COc1ccccc1C(=O)NNC1=C(C(=O)C(F)(F)F)CCC1	-3	-2	10689	99*	13	101*	-48
CN(C)CCCN1C(=O)CSC1c1ccc([N+](=O)[O-])cc1 (stereo unspecified)	0	4	4290	1	-6	0.8	-15
Cc1cccnc1NCc1ccc(O)c2ncccc12	4	8	8490	25	3	28	-1
Cc1nc2nc(SCC(=O)NCCCN3CCCCC3)nn2c(C)c1Cc1ccccc1	-4	-8	3562	12	7	-1.1	-4

Part of the list above in order of count of non-hydrogen atoms, low to high:
SMILES	Mtb hypoxia rep	Mtb hypoxia rep growth	Autofluor counter	ugtP null kill	BJeLR lethal	RN4220 kill	PrP UTR inh
CC(=O)Nc1ccc(N2Cc3ccccc3C2)cc1	-6	0	3002	-7	2	-1.5	-6
CCOC(=O)C1CCCN(S(=O)(=O)Cc2ccccc2)C1 (stereo unspecified)	4	-5	11599	1	5	-0.3	-12
Cc1nc(SCC(=O)NC2CCCC2)c2c(C)c(C)sc2n1	15	13	5254	10	-2	4.0	-14
O=C(Nc1nccs1)c1cccc(S(=O)(=O)N2CCOCC2)c1	.	.	4187	6	0	1.8	-9
COc1ccc(N2CCN(S(=O)(=O)c3c[nH]c(=O)[nH]c3=O)CC2)cc1	6	-1	6072	18	8	1.4	-24
